High-throughput results as filed in PubChem.
Beta apoptosis: inhibitors of cytokine-induced beta cell apoptosis, primary screen, luminescence. INS-1E cytokine-induced death, ATP luminescence, 48 h; percent of positive-control rescue, neutral wells zero. protection from apoptosis, % (no concentration beside the values). actives 0.8% (n = 300,000). AID 435005, 2010;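 active means all replicates at 75% or more, or half of them and the mean; inconclusive means half reach 75% but not the mean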;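 further: 0% = cytokine-treated negative control wells and 100% = positive control rescue; higher means more ATP so stronger rescue from cytokine killing; wells of about 40 µL received 100 nL stock; the first replicate is given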
rRNA inh HTS: reduced GFP signal of wild-type E. coli, primary screen, bacterial rRNA inhibitor project, GFP/RFP fluorescence, OD600, single point. E. coli WT GFP vs humanized-ribosome RFP mutants, 24 h; active compounds read low; DMSO median 0, no signal -100. GFP signal change (wild-type ribosome), % (test concentration not listed). actives 1.6% (n = 350,000);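 active means significant combined selectivity score with lowered wild-type GFP, culture density cut under 30%, mutant RFP and density less affected; inactive means any of these conditions unmet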; further: one replicate is shown; some compounds called inactive have numbers as strong as hits
ALR inh: inhibitors of human ALR sulfhydryl oxidase, primary screen, biochemical, H2O2 detection, HRP-luminol luminescence, single point; FAD-linked sulfhydryl oxidase ALR (Homo sapiens), P55789; purified ALR, DTT oxidation; inhibition, % (concentration not given with the values); actives 3.8% (n = 290,000); AID 485317, 2010;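 active means mean and each replicate at 75% or more; inconclusive means only one of the two met; inactive means neither met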;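 further: stock transfer was 7.5 nL into about 7.5 µL; 0% = neutral wells and 100% = wells with inactivated enzyme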
Target sequence (P55789 whole entry, looked up): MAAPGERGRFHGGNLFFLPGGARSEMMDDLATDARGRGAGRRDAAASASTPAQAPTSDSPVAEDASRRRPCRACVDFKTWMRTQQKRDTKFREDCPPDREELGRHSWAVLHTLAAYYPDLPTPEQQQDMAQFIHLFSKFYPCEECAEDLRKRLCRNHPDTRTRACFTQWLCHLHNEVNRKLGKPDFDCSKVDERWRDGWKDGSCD
T cruzi repl: inhibitors of intracellular T. cruzi growth, primary screen, luminescence, NIH3T3 host cells. T. cruzi beta-gal in NIH3T3, 90 h. inhibition, % (test concentration not listed). actives 1.4% (n = 300,000). AID 1885, 2009;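 active means mean inhibition across valid replicates above about 55%, limit read from the data; inconclusive means mean below that limit but half or more replicates reach it; inactive means mean below it, under half of replicates reach it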;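 further: signal also drops with host cell toxicity which is not excluded here; 0% = plate median of DMSO wells and 100% = zero luminescence signal; higher percent means less beta-gal luminescence so fewer parasites; stock transfer was 50 nL into about 50 µL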
Calb FLC: C. albicans growth inhibition with fluconazole, primary screen, CaCi-2 strain, Alamar Blue fluorescence; C. albicans CaCi-2 (fluconazole-resistant clinical isolate) + fluconazole, 48 h; growth inhibition, % (no concentration beside the values); actives 0.57% (n = 300,000);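 active means most replicates above 75%; inconclusive means exactly half above 75%; inactive means most below 75%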;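 further: all wells also contain fluconazole at 8 µg/ml as a sub-toxic cotreatment; 0% = median of DMSO wells and 100% = median of geldanamycin control wells; wells of about 8 µL received 7.5 nL stock; the first replicate is given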
AF4-AF9 inh: inhibitors of AF4 peptide binding to AF9, primary screen, biochemical, AlphaScreen, biotin-AF4 peptide, FLAG-AF9, single point; actives 0.47% (n = 350,000); inhibition, % at 10 µM;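 active means every replicate reaching a set inhibition limit, whatever the replicate mean, cut at about 25% in these data; inconclusive means mean inhibition reaches that limit but some replicates miss it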;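 further: 0% = plate neutral control median and 100% = total signal loss; the record names both 10 and 1 µM as test concentration; the first replicate is given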
Target sequence (P42568 whole entry, looked up): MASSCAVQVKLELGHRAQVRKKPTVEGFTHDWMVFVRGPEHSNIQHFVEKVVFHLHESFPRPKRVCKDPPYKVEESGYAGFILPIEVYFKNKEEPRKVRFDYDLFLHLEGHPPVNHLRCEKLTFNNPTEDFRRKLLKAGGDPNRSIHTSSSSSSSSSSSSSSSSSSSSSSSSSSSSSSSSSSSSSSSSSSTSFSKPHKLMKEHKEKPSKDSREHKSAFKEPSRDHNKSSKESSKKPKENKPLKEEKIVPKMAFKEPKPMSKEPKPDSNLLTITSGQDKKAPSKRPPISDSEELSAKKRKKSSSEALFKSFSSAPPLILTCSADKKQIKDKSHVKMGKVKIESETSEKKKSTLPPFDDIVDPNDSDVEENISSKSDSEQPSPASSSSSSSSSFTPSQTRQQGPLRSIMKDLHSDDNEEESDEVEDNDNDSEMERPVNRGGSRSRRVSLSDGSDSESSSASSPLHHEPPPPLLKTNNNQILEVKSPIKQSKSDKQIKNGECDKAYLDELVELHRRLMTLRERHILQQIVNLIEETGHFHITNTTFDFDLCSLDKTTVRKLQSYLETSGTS
FGF22 binding: binders of human FGF22 protein, primary screen, FGF22 synaptogenesis inhibitor project, biophysical, thermal shift, single point; Fibroblast growth factor 22 (Homo sapiens), Q9HCT0; recombinant FGF22 thermal shift, SYPRO orange fluorescence; percent of sucrose octasulfate shift, DMSO zero; calls only at 9.99 µM; actives 1.5% (n = 340,000); AID 651658, 2012;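 active means melting point raised past a set limit in the mean and every replicate; inconclusive means no clear call; three in four hits are not shown here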
Target sequence (Q9HCT0 whole entry, looked up): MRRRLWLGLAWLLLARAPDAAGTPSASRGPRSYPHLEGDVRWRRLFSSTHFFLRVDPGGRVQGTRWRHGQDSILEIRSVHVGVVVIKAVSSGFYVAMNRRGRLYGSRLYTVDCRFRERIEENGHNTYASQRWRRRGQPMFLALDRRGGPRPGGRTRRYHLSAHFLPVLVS
RanGTP-Imp inh: inhibitors of RanGTP-importin-beta interaction, primary screen, biochemical, FRET, CFP-Ran, YFP-importin-beta, homogeneous | cell-free CFP-Ran/YFP-importin-beta FRET ratio | actives 1.1% (n = 300,000) | inhibition, % (no concentration beside the values) | Ran GTPase (GTP-bound) - importin-beta complex;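 active means most replicates above 15%; inconclusive means exactly half above 15%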;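 further: 0% = DMSO wells and 100% = Ran loaded with GDP instead of GTP; wells of about 40 µL received 100 nL stock; the first replicate is given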
rRNA inh HTS OD600: second read-out of rRNA inh HTS, no call of its own (marks repeat the call); OD600 change, %; measured here: OD600 growth;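 optical density of the mix in the first replicate; 0 = DMSO median and -100 = no signal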
rRNA inh HTS RFP: further read-out of rRNA inh HTS, marked with its call; RFP signal change, %; measured here: RFP humanized mutant strains;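 first replicate; 0 = DMSO median and -100 = no signal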
* hit, by the source's call; i = inactive; ? = inconclusive; · = no result given. A portion of the library, so the mix of outcomes need not match the whole.

Order of results: rRNA inh HTS OD600, rRNA inh HTS, rRNA inh HTS RFP, FGF22 binding, AF4-AF9 inh, RanGTP-Imp inh, T cruzi repl, Beta apoptosis, Calb FLC, ALR inh
- NC(Cc1ccc2nsnc2c1)C(=O)O (stereo not drawn)
→ 13, 14, -6.6, i, 4.9, -0.2, -5, -6, -13, -4
- COc1ccc(OC)c(NC(=O)CSc2nc(O)cc(=O)n2CC(C)C)c1
→ -14, -18, 3.4, i, -3.7, ·, ·, -1, ·, -6
- O=C1/C(=C\c2ccccn2)SC(=S)N1Nc1ncc(C(F)(F)F)cc1Cl
→ ·, ·, ·, ·, ·, -1.0, 12, 5, 27, 6
- COc1ccc(C(=O)N[C@H](C(=O)NC2CCCCC2)C(C)C)cc1
→ 6, 3, -2.7, i, -2.5, ·, ·, 2, ·, -3
- Cc1ccc(S(=O)(=O)n2cccc2CO)cc1
→ 5, 3, 19, i, -9.0, -0.4, -12, -8, 2, 10
- CN1CCN(CC(O)c2ccccc2)CC1 (stereo not drawn)
→ ·, ·, ·, ·, ·, 6.6, 55*, -1, 3, -1
- CSc1cccc(NC(=O)NNC(=O)C2CCN(S(=O)(=O)N(C)C)CC2)c1
→ 6, 18, 0.4, i, -2.5, 4.6, -18, -6, 3, -1
- CC1CCCC(NC(=O)CCn2c(=O)oc3ccccc32)C1C (stereo not drawn)
→ ·, ·, ·, ·, ·, -0.9, 0, 0, -4, ·
- CN(C)/C=C/c1onc(-c2ccccc2Cl)c1C#N
→ 4, 6, 3.3, i, -5.6, -2.1, -15, -1, -13, 2
- CC(C)C1OC(c2cccc(NC(=O)c3cccs3)c2)OCC1(C)C (stereo not drawn)
→ -11, -10, 0.5, ·, -2.1, 5.9, 15, 8, -8, 15
- O=C(Nc1cc(Cl)ccc1N1CCOCC1)c1ccc(Br)o1
→ 5, 5, -3.6, i, 1.1, 0.1, 7, -1, -6, ·
- COc1cccc(C2C(C#N)=C(N)Oc3cc(C)oc(=O)c32)c1OC (stereo not drawn)
→ ·, ·, ·, ·, ·, -0.6, -11, -5, 1, 6
- Cc1oc2c(C)c3oc(=O)c(CCC(=O)N4CCC(C(=O)NCCC(=O)O)(c5ccccc5)CC4)c(C)c3cc2c1C
→ 1, -1, -4.1, i, -0.6, 0.3, 10, -2, ·, 6
- O=C(Nc1cc(N2CCOCC2)ncn1)c1ccccc1
→ ·, ·, ·, ·, ·, 2.8, -7, -8, -2, 2
- CC(C)(C)OC(=O)N[C@@H](Cc1ccccc1)C(=O)NCC1CCC(C(=O)O)CC1 (stereo partly drawn)
→ 1, 13, 0.5, i, -11, -1.1, -7, -3, 3, ·
- O=S(=O)(Nc1ncnc2sccc12)c1cccc(F)c1
→ -3, 1, -2.5, i, -0.4, ·, ·, 1, ·, 8
- COc1ccc(C2(C(F)(F)F)NC(=O)N(C)C(=O)N2C)cc1 (stereo not drawn)
→ ·, ·, ·, ·, ·, -5.7, -19, 2, -4, -4
- CS(=O)(=O)N(CC(=O)NCCSCc1ccccc1)c1ccccc1Cl
→ 7, 4, 0.9, i, -1.0, 0.0, -7, -2, -5, ·
- COc1ccc(NC(=O)NCCCN2CCCCC2C)cc1 (stereo not drawn)
→ ·, ·, ·, ·, ·, -2.0, 0, 5, -8, 0
- COCCCNC(=O)/C=C/c1ccc(OCc2c(F)cccc2Cl)cc1
→ -3, -4, -3.1, i, 0.5, 1.0, 19, 2, 44, -4
- COc1cc(C(=S)N2CCOCC2)ccc1OC(=O)c1ccc([N+](=O)[O-])cc1[N+](=O)[O-]
→ 13, 16, 2.8, i, 7.0, 5.8, -8, -13, -4, -25
- Cc1ccc(NC(=S)N/N=C/c2c(C)[nH]c3ccccc23)cc1
→ -26, -23, -1.7, i, 16, ?, 36, 10, ?, -10
- CCC1(C)Cc2ccccc2-c2nc(NCCCO)n(-c3ccccc3)c(=O)c21 (stereo not drawn)
→ ·, ·, ·, ·, ·, -0.7, 18, -28, -4, ·
- CC(=O)Oc1ccc2c(=O)c(-c3ccccc3)c(C)oc2c1
→ ·, ·, ·, i, 5.2, -3.1, -8, 0, -10, 23
- COCc1ccc(C(=O)N2CCCC(Nc3ccc(C(C)C)cc3)C2)s1 (stereo not drawn)
→ -47, -27, 2.6, i, 7.1, -1.7, 26, 9, -3, 93*
- CCOc1ccccc1N1CCN(C(=O)NCc2ccc(Cl)cc2)CC1
→ -26, 1, 8.4, i, -1.2, 2.2, 18, 5, 14, 15
- O=C(COC(=O)c1ccc(F)cc1F)Nc1ncccn1
→ 6, 11, -3.6, i, 1.3, 2.0, 1, -5, 3, -14
- c1ccc2c(-c3nn[nH]n3)cccc2c1
→ ·, ·, ·, ·, ·, 0.3, -2, -3, -7, -5
- CCOc1ccc(NC(=O)c2ccccc2O)cc1
→ ·, ·, ·, ·, ·, -2.2, -4, 3, -14, 8
- CC1(C)CC(=O)C=C(c2cc3ccccc3s2)C1
→ -9, 8, -1.3, i, 2.8, 3.4, -7, 3, -5, 7
- COc1ccc(OCC(=O)Nc2ccccc2N2CCCCC2)cc1
→ -16, -5, -3.1, i, -0.2, 0.8, 26, 9, 1, -2
- Cc1ccc(C)c(NC(=O)CSc2nnc(CCNC(=O)OC(C)(C)C)o2)c1
→ ·, ·, ·, ·, ·, 3.2, -7, -5, 2, -13
- O=C(NC(=S)NCCN1CCOCC1)c1ccccc1
→ 9, 16, 5.8, i, -0.7, 4.9, -5, -6, 5, ·
- O=C(CC(c1ccccc1)c1cc(Br)ccc1O)N1CCCC1 (stereo not drawn)
→ -12*, -20*, 0.8*, i, 0.3, -6.2, 0, -1, 6, 9
- Cc1cccc(N2C(=O)CC(Sc3ccccc3C(=O)O)C2=O)c1 (stereo not drawn)
→ ·, ·, ·, ·, ·, 1.2, -6, ·, -12, -3
- CCc1noc(C)c1C(=O)Nc1ccc(C#N)cc1
→ 3, 4, -1.4, ·, -2.5, -1.5, -12, -3, 1, -9
- CCOC(=O)[C@@H]1[C@H]2COc3ccccc3[C@@H]2N2C(=O)N(c3cccc(Cl)c3)C(=O)[C@@]12C
→ -21, 0, -2.0, i, 4.3, -1.9, 10, 4, 4, -9
- COc1ccc(C(=O)Cn2c(NCCO)nc3ccccc32)cc1OC
→ 3, -4, -3.3, i, -43, -1.0, -11, -1, -4, -21
- COC(=O)c1c(NC(=O)CN2C(=O)NC3(CCC(C)CC3)C2=O)sc2c1CCC2 (stereo not drawn)
→ -2, -5, 0.5, i, 0.7, ·, ·, -6, ·, 2
- Cc1cc(C)cc(C(=O)OCC(=O)NCCNC(=O)COC(=O)c2cc(C)cc(C)c2)c1
→ 8, 3, 2.8, i, -0.9, 2.9, -8, 4, -10, 0
- O=C(N/N=C1/CC2C=CCC12)c1ccco1 (stereo not drawn)
→ ·, ·, ·, ·, ·, -2.6, -4, 2, 3, -3
- O=C(c1ccccc1)c1cccc(NC(=O)c2ccc(Br)o2)c1
→ ·, ·, ·, ·, ·, -1.3, 38, -7, 3, 26
- O=C(Nc1cccc(-c2csc(-c3ccccc3)n2)c1)c1cccs1
→ ·, ·, ·, ·, ·, -4.3, 38, 2, 19, 1
- Cn1cc(C(=O)c2ccc(Cl)cc2Cl)cc1C(=O)N/N=C(\N)COc1ccc(F)cc1
→ ·, ·, ·, ·, ·, -2.1, 9, 9, 0, -2
- NNC(=O)C1CC1(c1ccccc1)c1ccccc1 (stereo not drawn)
→ -13, -13, 2.2, i, ·, -0.1, -14, 2, 6, 3
- Cc1[nH]n(-c2ccccc2)c(=O)c1C(=O)Nc1ccccc1
→ -12, -6, 3.1, i, 0.9, 1.3, 3, -1, -1, 15
- Cc1ccc(C)c(Nc2nc(-c3cccnc3)cs2)c1
→ -43, -21, 4.8, i, -3.3, -3.4, 33, 0, 11, 1
- FC(F)(F)c1ccc2c(c1)C1C=CCC1C(c1ccncc1)N2 (stereo not drawn)
→ 14, 9, 2.0, ·, 21, ?, 19, ·, 23, ·
- Cc1cccc(C)c1NC(=O)c1cccnc1
→ 9, 22, 0.3, i, -1.9, 1.0, -4, 4, -20, 0
- COC(=O)C(C)Sc1nc2c(cnn2-c2ccc(Cl)cc2)c(=O)[nH]1 (stereo not drawn)
→ 13, 7, 0.7, i, -0.5, 3.6, -8, 1, -1, 0
- Cc1ccc(S(=O)(=O)N(C)C)cc1NC(=S)NNC(=O)C1CC1
→ 14, 7, 0.6, i, 0.9, -3.1, -16, -8, -41, ·
- O=C1[C@H]2[C@@H](C(=O)N1c1cccc3ccccc13)C1(C(=O)c3ccccc3C1=O)N1CCC[C@@H]21
→ ·, ·, ·, ·, ·, -2.6, -27, 8, 24, ·
- O=C(O)c1ccc(N2CCCS2(=O)=O)cc1
→ 8, -2, -2.6, i, -2.6, 4.4, -10, -4, -1, -19
- CCN(C[C@H]1N[C@@](Cc2ccccc2)(C(=O)OC)[C@H]2C(=O)N(C)C(=O)[C@@H]12)C(=O)Nc1ccccc1
→ -7, -4, -3.9, i, 1.2, ·, ·, 0, ·, 2
- Cc1cccc(N(C(=O)CCC(=O)Nc2cc(C)on2)C(C(=O)NC2CCCC2)c2cccnc2)c1 (stereo not drawn)
→ 4, -2, 1.9, i, 0.8, -4.2, 0, -6, 5, -10
- COc1ccc(/C(N)=N/O)c(OC)c1
→ 2, 24, -2.7, i, -0.4, -2.4, -17, -2, 2, 55
- CCSc1nnc(NC(=O)C2C3C=CC(C3)C2C(=O)O)s1 (stereo not drawn)
→ ·, ·, ·, ·, ·, 0.3, -6, -1, -17, -1
- Cc1nnc(Sc2cc(C(=O)NCCCN(C)Cc3ccccc3)c3ccccc3n2)s1
→ ·, ·, ·, ·, ·, -1.8, 64*, ·, 4, -2
